StopGo reporter: FMDV 2A StopGo reporter, luciferase signal; hit rate 1.2% among 410,000; Potency, µM (doses to about 57.9 µM), without a hit: top-dose signal change, negative = less light; human cells with a luciferase reporter of 2A StopGo recoding; control for the full effect not named in the record; AID 1159524; active = well fitted falling curve with a large enough effect; inconclusive = small, poorly fitted or top-dose-only effect; inactive = no such curve, though single readings can be large or run the other way; tested in HEK293T cells; note: nearly all actives have a fitted effect of over 45% in size; luciferase light after 4 h
RE007 growth inh: less growth of the S. pombe RE007 Vpr strain | S. pombe RE007 Vpr strain, BacTiter-Glo ATP luminescence, 24 h; control for the full effect not named in the record | Potency, µM (series often up to 92.2 µM), without a hit: at the top dose activity change, negative = less growth | hit rate 0.21% among 360,000; active = well fitted falling curve with a large enough effect; inconclusive = small, poorly fitted or top-dose-only effect; inactive = no such curve, though single readings can be large or run the other way;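 note: nearly all actives have a fitted effect of over 50% in size; the assay follows cell death caused by Vpr and the record does not say whether a fall means rescue or toxicity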
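Fission yeast RE007 carrying one integrated HIV-1 vpr copy, seeded at OD 0.01 in PMG+AL medium with 23 nL pinned compound. Grown 24 h at 30 degrees; viability read by BacTiter-Glo luminescence after 5 min.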
* = called active by the depositor; ? = inconclusive; [ ] = dose if it differs, or a comment. % is set by controls: 0 for no effect and ±100 for the full control effect; potency is the fitted concentration of half-maximal effect. Not all compounds are listed; rates above refer to the full screens.

SMILES	StopGo reporter	RE007 growth inh
O=C(Nc1cccc(Oc2ccccc2)c1)C1Cc2c(-c3ccc4c(c3)OCO4)ccnc2O1 (stereo not drawn)	-9%	-22%
Cc1ccc2nc(N(CCN(C)C)C(=O)C3CCN(S(=O)(=O)c4cccs4)CC3)sc2c1	6%	-5%
Nc1sc(-c2ccccc2)cc1C(=O)N1CCN(c2ccccc2)CC1	31%[activator]	-2%
Cc1ccc(-c2nc3ccc(Br)cn3c2Cc2cccc(Cl)c2)cc1	25%	7%
Nc1nc(N)c2cc(Sc3cccc(C(F)(F)F)c3)ccc2n1	?	2%
CC(C)[C@H](CO)NC(=O)[C@H]1O[C@@H](n2ccc(=O)[nH]c2=O)[C@H](O)[C@@H]1O	-7%	-1%
CCc1ccc([C@H]2C[C@H]3[C@H]4C(=O)N(c5ccccc5)C(=O)[C@H]4CC(=O)[C@@H]3CN2S(=O)(=O)c2ccc(C)cc2)cc1	-10%	12%
Oc1ccc(O)c(C=NNC(=S)NC2CC3CC2C2C=CCC32)c1 (stereo not drawn)	13%	-6%
Cc1ccc(C(=O)Nc2cccnc2)cc1C	70%[activator]	-4%
CCC1NC(=O)c2cc3ccccc3cc2-n2c1nc1cc(F)ccc1c2=O (stereo not drawn)	-21%	-12%
Cc1ccc(S(=O)(=O)N(C)[C@H]2C[C@H]3c4[nH]c5ccccc5c4CCN3C[C@H]2[C@H](C)O)cc1	-18%	-14%
OC[C@@H]1CN(Cc2ccc(-c3ccccc3)cc2)C[C@H](n2cnc3c(NC4CCCC4)ncnc32)O1	16µM*	-8%
CC(=O)c1ccc(OC2(C)CCN(Cc3ccc4c(c3)OCCO4)C2)cc1 (stereo not drawn)	-5%	-6%
C#CCNC(=O)C[C@@H]1C[C@@]2(C(=O)OCC)CCCC=C2N(Cc2cccc3ccccc23)C1=O	-5%	-25%
CCOC(=O)N1CCC(=NNC(N)=O)C1	-12%	-14%
C=C1CCN([C@H](C(=O)O)C(C)C)S(=O)(=O)c2ccccc21	-13%	0%
COCCCN1C(=O)C(CC(=O)NCCCN(C)C)CC(C(=O)N2CCCCCC2)=C1C (stereo not drawn)	-21%	1%
CC(C#N)(NC(=O)CN1CCN(S(=O)(=O)c2cccc(F)c2)CC1)C1CC1 (stereo not drawn)	0%	4%
CN(C)S(=O)(=O)c1ccc2c(c1)nc(CCC(=O)NCC(=O)Nc1ccc(F)c(F)c1F)n2C	-16%	2%
Cc1ccc(NC2CCCN(C(=O)c3cc(C(C)C)nn3C)C2)cc1C (stereo not drawn)	-19%	5%
CC(C)(C)c1ccc(C(=O)N2CCC2(C)C(=O)NCC(F)(F)F)cc1 (stereo not drawn)	-7%	5%[18.4 µM]
COCCN1C[C@@H](CO)O[C@@H](n2cnc3c(NCc4ccco4)ncnc32)C1	-2%	2%[18.4 µM]
CCOC(=O)C1CCCN(C(=O)c2c(-c3ccccc3)noc2C)CC1 (stereo not drawn)	-12%	-1%[18.4 µM]
CC1(C(=O)NS(=O)(=O)Cc2ccccc2C(F)(F)F)CCN1C(=O)Cc1cccs1 (stereo not drawn)	-3%	0%
CC(=O)Nc1cc(-c2cccc(CO)c2)cn2c(-c3ccc(C(C)=O)cc3)cnc12	-6%	-3%[18.4 µM]

Next part:
SMILES	StopGo reporter	RE007 growth inh
N#CC(=Cc1ccccn1)c1nc(-c2ccc(Cl)cc2)cs1	13%	0%
COc1cc(OC)cc(-c2noc(-c3csc([C@@H]4C[C@H](O)[C@@H](CO)O4)n3)n2)c1	36%[activator]	-9%[18.4 µM]
Cc1ccc(CCNC(=O)CN2C(=O)CSc3ccc(S(=O)(=O)N4CCOCC4)cc32)cc1	-1%	-4%
CCCCCCN1C[C@H](O)[C@@H](n2cc(C3CC3)nn2)C[C@@H]1c1ccc(Cl)cc1	-6%	4%
COc1cc(CNC(=O)Nc2nc(C(N)Cc3ccc(Cl)cc3)cs2)cc(OC)c1OC (stereo not drawn)	-18%	-8%
COc1cc(Cl)ccc1OC1(C)CCN(Cc2cccn2-c2nccs2)C1 (stereo not drawn)	-25%	-14%
Cc1nc2c(OCc3ccc(C(F)(F)F)cc3)cccn2c1N(C)CC1CC1	?	-16%
COC(=O)N1C2CCCCC2=NN(c2ccccc2)N1C(=O)OC (stereo not drawn)	6%	129%
O=C(c1ccoc1)N1CCN(c2cc(-c3cccc(F)c3)nc3cc(-c4cccc(Cl)c4)nn23)CC1	?	1%
COc1ccc(NC(=O)[C@H](C)NS(=O)(=O)c2ccc(NC(C)=O)cc2)cc1Cl	1%	-7%
COc1ccc(OC)c(NC(=O)Nc2nc(CN(C)C)cs2)c1	-7%	0%
CCC(=O)Nc1ccc2c(c1)OC[C@@H](C)N(Cc1ccccc1F)C[C@@H](C)[C@@H](OC)CN(C)C2=O	-13%	-2%
CC(=O)Oc1ccc(Cn2c(C)c(C(=O)NCCC#N)sc2=O)cc1	20%	3%[18.4 µM]
CCC(c1nc2ccccc2[nH]1)N(C(=O)C1=NNC(=O)CC1)c1ccccc1 (stereo not drawn)	-6%	2%
COCCNC(=O)C1(C)CCN(C(=O)c2cc(C)n(C(C)(C)C)n2)C1 (stereo not drawn)	-3%	1%[18.4 µM]
C[C@H]1CCCCO[C@H](CN(C)CC2CCCCC2)[C@@H](C)CN([C@@H](C)CO)C(=O)c2cc(NS(=O)(=O)c3ccccc3)ccc2O1	-2%	1%
CCCCCC(=O)N1C[C@@H](n2cc(-c3ccc(F)cc3)nn2)[C@H](O)C[C@@H]1c1ccc(C)cc1	-29%	14%
CC1(C)C(=O)Nc2ccccc2N1C(=O)COC(=O)CNS(=O)(=O)c1ccc(Br)cc1Cl	0%	7%
COCCNC(=O)C1(C)Cc2c(-c3ccc4c(c3)OCO4)ccnc2O1 (stereo not drawn)	-2%	13%
CCCN(CC(=O)Nc1ccc(F)c(F)c1F)C(=O)Cc1ccc(OC)c(S(=O)(=O)N2CCOCC2)c1	1%	-8%
CCC(=O)N1CCCC(C)(C(=O)Nc2nccc3cccnc23)C1 (stereo not drawn)	6%	0%
Cc1ccc(CC2(C)C(=O)Nc3c(Cl)cccc32)cc1 (stereo not drawn)	-17%	-3%
CCN1C(=O)[C@H]2[C@@H](c3ccc(OC)cc3)N[C@]3(CCCN(Cc4ccc(C)cc4)C3=O)[C@H]2C1=O	-8%	-21%
Cc1noc(C)c1NC(=O)N1C[C@H](O)COC[C@H]2O[C@@H](CC(=O)NCC3CCCCC3)CC[C@@H]21	-11%	-11%
COc1ccccc1C(=O)NCCC(=O)NCCOc1ccc(C)cc1	-20%	-2%

Further entries
SMILES	StopGo reporter	RE007 growth inh
CCOC(=O)N(C)c1c(CC)nc2c(OCc3ccc(Cl)cc3)cccn12	-16%	-24%
O=C(Cc1ccc(NC(=O)C2CCCN(C(=O)C3CCCC3)C2)cc1)Nc1cccc(C(=O)N2CCCCC2)c1 (stereo not drawn)	-4%	7%
O=C(Cc1ccccc1F)Nc1cccc(S(=O)(=O)N2CCCCC2)c1	-1%	6%
OCCN1CCN(c2cc(-c3ccc4ccccc4c3)nc3ccnn23)CC1	6%	-19%
CC1=C(C(=O)N(C)C)CC(CC(=O)NCCCN(C)C)C(=O)N1Cc1ccccc1 (stereo not drawn)	0%	-8%
COc1cc(/C=C/C(=O)Nc2ccc(S(=O)(=O)Nc3ncccn3)cc2)ccc1OCC#N	11%	-13%
C=CCNC(=O)c1onc(CSc2ccccc2)c1C(=O)NCC=C	-8%	12%
CC(=O)Nc1ccc(-c2ccnc3c2CC(C)(C(=O)NCc2ccc(N4CCN(C)CC4)cc2)O3)cc1 (stereo not drawn)	-9%	-19%
CCCCCNC(=O)C(c1cccc2ccccc12)n1c(=O)c(-c2cc3ccccc3[nH]2)nc2ccccc21 (stereo not drawn)	-1%	0%
CC(C)C#Cc1cnc2c(c1)C(=O)N([C@H](C)CO)C[C@@H](C)[C@H](CN(C)C(=O)Nc1ccccc1F)O2	-16%	4%
Nc1cc(N)nc(SCc2ccccc2Cl)n1	0%	3%
CC(=O)OC[C@@H]1CN(Cc2ccccc2)C[C@H](n2cnc3c(NC(C)C)ncnc32)O1	-7%	-11%
CCCCn1nc(C(=O)N(C)Cc2nc3ccccc3c(=O)[nH]2)c2ccccc2c1=O	-18%	1%
CN(N=Cc1ccccc1)C(=S)Nc1ccccc1	-18%	6%
O=c1ccc(-c2nc3ccccc3n2C(CCc2ccccc2)c2nc3ccccc3[nH]2)c[nH]1 (stereo not drawn)	-16%	0%
CCc1nc2ccc(C(=O)NCCCN3CCCC3=O)cn2c1N(CCC(C)C)CCN(C)C	-1%	-9%
COC(=O)[C@@]12C[C@@H](CC(=O)NCc3cccs3)C(=O)N(Cc3ccco3)C1=CCC(C)(C)C2	-13%	4%
C[C@H]1CN([C@@H](C)CO)C(=O)c2cc(Br)cnc2O[C@H]1CN(C)S(=O)(=O)c1ccccc1F	23%	-22%
CC1=C(C(=O)N(C(C)C)C(C)C)CC(CC(=O)NC2CCCC2)C(=O)N1CCCN1CCCC1=O (stereo not drawn)	-19%	1%
CC1COC(=C2C(=O)OCC2C)C1 (stereo not drawn)	-13%	-23%
CC(C)c1c(CN(C)C(C)Cc2ccccc2)n(C)n(-c2ccccc2)c1=O (stereo not drawn)	?	2%
O=C(O)c1ccc(CSc2nc3c(c(=O)[nH]2)CCC3)cc1	0%	10%
COc1ccc(-n2nnnc2C(c2cccc(OC)c2OC)N2CCN(C/C=C/c3ccccc3)CC2)cc1 (stereo not drawn)	4%	-17%
CCOc1ccc(S(=O)(=O)N2CCN(C(=O)c3ccc(Cl)c(S(=O)(=O)N4CCOCC4)c3)CC2)cc1	?	9%
Cc1ccc(CN2CCC2(C)C(=O)NC(C)C)cc1 (stereo not drawn)	-6%	13%[18.4 µM]

Remaining list, next part:
SMILES	StopGo reporter	RE007 growth inh
CC1(C)CC2(OC2c2ccccc2)C(=O)c2ccccc21 (stereo not drawn)	-13%	-1%
CCOC(=O)[C@]12CCC=C1N(Cc1ccco1)C(=O)[C@H](CC(=O)N1CCOCC1)C2	-6%	-3%
CC1(Oc2cccc(F)c2)CCN(Cc2csc3ccccc23)C1 (stereo not drawn)	-18%	?
COCCNc1nc(Oc2cccc(NC(C)=O)c2)c2sc(-c3ccccc3)cc2n1	14%	6%[18.4 µM]
CC1(C)CN(CCc2ccccc2)C(=O)[C@H]1CC(=O)Nc1ccc(Br)cc1	-17%	-14%
CCOC1=C2[C@H](c3ccccc3)N(S(=O)(=O)c3ccccc3)C[C@H]2n2c(=O)n(-c3ccccc3)c(=O)n2C1	4%	3%
O=C(NCc1ccccc1)C(c1cccc2ccccc12)n1c(=O)c(-c2ccccc2)nc2ccccc21 (stereo not drawn)	33%	0%
C=CCNc1nc2cc(-c3ccccc3C)sc2c(=O)n1C	44%[activator]	-4%
COC(=O)[C@]12CCCCC=C1N(Cc1ccccc1)C(=O)[C@H](CC(=O)NCc1ccc(C)o1)C2	-11%	4%
COc1ccc(NC(=O)N(C)C[C@@H]2OCc3cnnn3CCCC(=O)N([C@H](C)CO)C[C@H]2C)cc1	0%	-4%
COc1ccc(CN2C(=O)C(CC(=O)NC3CCCCC3)CC(C(=O)N3CCOCC3)=C2C)cc1 (stereo not drawn)	17%	8%
CC(O)[C@H]1CN=C(N)N1CC(C)(C)C (stereo partly drawn)	-10%	-13%
c1cc2c(cc1N1CCCCC1)C1CC2CCN1 (stereo not drawn)	0%	-3%
CC1(C(=O)Nc2cccc(OC(F)(F)F)c2)Cc2c(-c3ccc4c(c3)OCO4)ccnc2O1 (stereo not drawn)	-1%	5%
COc1cccc(CN(C)CCCn2ccc(NC(=O)OCc3ccccc3)nc2=O)c1	-20%	-28%
OC(c1ccccc1)c1ncc(-c2ccc(C(F)(F)F)cc2)[nH]1 (stereo not drawn)	35%[activator]	-5%
CC1(C(=O)NS(=O)(=O)c2ccc(Cl)s2)CCN1C(=O)C1(c2ccc(Cl)cc2)CCC1 (stereo not drawn)	7%	18%
CCOC(=O)c1c(C)[nH]c(C(=O)N(C)CC(=O)Nc2ccc(OCC)c(OCC)c2)c1C	-15%	10%
CC(C)(C(=O)N1CCC1(C)C(=O)NS(=O)(=O)c1cccc(Cl)c1)c1ccccc1 (stereo not drawn)	33%[activator]	3%[18.4 µM]
CC(=O)C[C@H]1c2ccccc2S(=O)(=O)N1C1CCCCC1	51%[activator]	-2%

Seven records picked at random from those above:
SMILES	StopGo reporter	RE007 growth inh
O=C(NCc1ccccc1)C(c1cccc2ccccc12)n1c(=O)c(-c2ccccc2)nc2ccccc21 (stereo not drawn)	33%	0%
CCOC(=O)c1c(C)[nH]c(C(=O)N(C)CC(=O)Nc2ccc(OCC)c(OCC)c2)c1C	-15%	10%
OC(c1ccccc1)c1ncc(-c2ccc(C(F)(F)F)cc2)[nH]1 (stereo not drawn)	35%[activator]	-5%
CC1(Oc2cccc(F)c2)CCN(Cc2csc3ccccc23)C1 (stereo not drawn)	-18%	?
c1cc2c(cc1N1CCCCC1)C1CC2CCN1 (stereo not drawn)	0%	-3%
COc1ccc(CN2C(=O)C(CC(=O)NC3CCCCC3)CC(C(=O)N3CCOCC3)=C2C)cc1 (stereo not drawn)	17%	8%
CC1(C(=O)NS(=O)(=O)c2ccc(Cl)s2)CCN1C(=O)C1(c2ccc(Cl)cc2)CCC1 (stereo not drawn)	7%	18%

Whole records as entered above.
COc1cccc(CN(C)CCCn2ccc(NC(=O)OCc3ccccc3)nc2=O)c1 is listed with StopGo reporter = -20%; RE007 growth inh = -28%
COc1ccc(NC(=O)N(C)C[C@@H]2OCc3cnnn3CCCC(=O)N([C@H](C)CO)C[C@H]2C)cc1 is listed with StopGo reporter = 0%; RE007 growth inh = -4%

Screening data from PubChem.
